# E coli growth: E. coli growth inhibition, primary screen, OD600. Escherichia coli growth, 23 h; hits give low values. OD600 absorbance (test concentration not listed). 0.21% of 330,000 active;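 active = OD600 absorbance below the run mean of sample wells minus 3.6 SD, in any replicate, cut at about 0.56 in these data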;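 also: stock transfer was 300 nL into about 60 µL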
# UCH37 inh: inhibitors of human UCH37 deubiquitinase, primary screen, biochemical, Ub-AMC cleavage, fluorescence; Ubiquitin carboxyl-terminal hydrolase isozyme L5 (Homo sapiens), Q9Y5K5; purified proteasome/UCH37; inhibition, % (no concentration beside the values); 0.33% of 330,000 active;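 active = mean of two replicates above 20%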;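 also: 0% = compound-free wells with enzyme and 100% = wells lacking proteasome; stock transfer was 100 nL into about 20 µL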
#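 Reagent: Ub-AMC substrate; assay system: Proteasome-associated human UCH37 deubiquitinase; controls: no-proteasome and no-compound wells; read-out: % inhibition of Ub-AMC cleavage fluorescence; timing: 30 min preincubation with enzyme, 25 min cleavage at room temperature; signal: AMC fluorescence from Ub-AMC cleavage, excitation 355 nm, emission 460 nm; buffer or medium: Tris-HCl pH 7.4 plus ovalbumin, ATP-MgCl2, DTT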
# B2AR ag: beta2AR agonists driving receptor internalization, primary screen, cell-based, FAP fluorogen, flow cytometry; Am2.2-beta2AR cells; reference of the scale not given here; AID 504454, 2011; 0.43% of 340,000 active; response, % (no concentration beside the values);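 active = response above a set limit, near 3 SD of response in nonfluorescent compounds, cut at about 42% in these data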;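 also: stock transfer was 100 nL into about 11 µL; a reference agonist was the positive control; negative values mostly stem from fluorescent compounds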
# Target sequence (P07550 whole entry, looked up): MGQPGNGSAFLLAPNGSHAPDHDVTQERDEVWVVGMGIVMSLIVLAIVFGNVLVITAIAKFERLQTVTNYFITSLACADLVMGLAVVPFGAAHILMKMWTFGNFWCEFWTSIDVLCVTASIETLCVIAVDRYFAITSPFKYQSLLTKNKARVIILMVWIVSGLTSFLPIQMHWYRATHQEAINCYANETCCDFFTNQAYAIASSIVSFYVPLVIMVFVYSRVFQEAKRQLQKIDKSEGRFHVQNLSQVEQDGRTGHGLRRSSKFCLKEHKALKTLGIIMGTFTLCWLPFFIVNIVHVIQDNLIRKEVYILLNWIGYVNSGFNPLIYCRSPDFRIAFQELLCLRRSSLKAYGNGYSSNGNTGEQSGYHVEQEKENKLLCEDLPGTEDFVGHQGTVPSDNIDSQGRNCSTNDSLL
# ALR H2O2 inh: inhibitors of human ALR sulfhydryl oxidase, primary screen, biochemical, H2O2 detection, HRP-luminol luminescence, single point. FAD-linked sulfhydryl oxidase ALR (Homo sapiens), P55789. purified ALR, DTT oxidation. inhibition, % (test concentration not listed). 3.8% of 290,000 active. AID 485317, 2010;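 active = mean and each replicate at 75% or more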;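 also: stock transfer was 7.5 nL into about 7.5 µL; 0% = neutral wells and 100% = wells with inactivated enzyme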
# HNF4A DNA FP: change in binding of human HNF4A to DNA, primary screen, biochemical, fluorescence polarization, FITC-DNA; 1 h; Hepatocyte nuclear factor 4-alpha (Homo sapiens), P41235; 0.3% of 360,000 active; activity change, % at 10 µM; in the data active = activity change above about 30%, passing the limit was not always enough;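 also: controls were the assay level and a saturating level of protein; the project sought stronger binding though the title names inhibitors; some compounds called inactive have numbers as strong as hits; positive values seem to mean higher polarization but the record does not say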
# Target sequence (P41235 whole entry, looked up): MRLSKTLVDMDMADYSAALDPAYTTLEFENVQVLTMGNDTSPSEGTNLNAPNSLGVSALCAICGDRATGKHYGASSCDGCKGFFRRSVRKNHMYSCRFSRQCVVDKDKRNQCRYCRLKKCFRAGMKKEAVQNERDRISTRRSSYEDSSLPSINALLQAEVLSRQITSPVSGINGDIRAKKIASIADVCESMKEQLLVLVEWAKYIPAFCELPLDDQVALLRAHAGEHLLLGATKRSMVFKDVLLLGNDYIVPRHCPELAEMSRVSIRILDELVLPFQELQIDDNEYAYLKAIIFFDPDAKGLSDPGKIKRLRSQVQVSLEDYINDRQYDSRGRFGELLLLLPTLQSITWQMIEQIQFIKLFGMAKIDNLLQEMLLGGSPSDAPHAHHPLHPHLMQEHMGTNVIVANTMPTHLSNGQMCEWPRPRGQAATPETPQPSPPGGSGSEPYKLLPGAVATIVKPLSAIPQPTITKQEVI
# rRNA inh HTS: reduced GFP signal of wild-type E. coli, primary screen, bacterial rRNA inhibitor project, GFP/RFP fluorescence, OD600, single point | GFP signal change (wild-type ribosome), % (test concentration not listed) | E. coli WT GFP vs humanized-ribosome RFP mutants, 24 h; hits give low values; DMSO median 0, no signal -100 | AID 720706, 2013 | 1.6% of 350,000 active;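 active = significant combined selectivity score with lowered wild-type GFP, culture density cut under 30%, mutant RFP and density less affected; inactive = any of these conditions unmet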; also: one replicate is shown; some compounds called inactive have numbers as strong as hits
# FGF22 binding: binders of human FGF22 protein, primary screen, FGF22 synaptogenesis inhibitor project, biophysical, thermal shift, single point; Fibroblast growth factor 22 (Homo sapiens), Q9HCT0; recombinant FGF22 thermal shift, SYPRO orange fluorescence; percent of sucrose octasulfate shift, DMSO zero; calls only at 9.99 µM; 1.5% of 340,000 active;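 active = melting point raised past a set limit in the mean and every replicate; three in four hits are not shown here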
# Target sequence (Q9HCT0 whole entry, looked up): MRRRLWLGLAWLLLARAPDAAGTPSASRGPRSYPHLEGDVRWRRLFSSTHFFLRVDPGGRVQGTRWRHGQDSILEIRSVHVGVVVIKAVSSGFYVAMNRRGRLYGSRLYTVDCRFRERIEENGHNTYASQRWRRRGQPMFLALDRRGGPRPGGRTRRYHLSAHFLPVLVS
# rRNA inh HTS OD600: second read-out of rRNA inh HTS, no call of its own (marks repeat the call); OD600 change, %; measured here: OD600 growth;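 optical density of the mix in the first replicate; 0 = DMSO median and -100 = no signal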
# rRNA inh HTS RFP: second read-out of rRNA inh HTS, no call of its own (marks repeat the call); RFP signal change, %; measured here: RFP humanized mutant strains;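 first replicate; 0 = DMSO median and -100 = no signal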
# * marks the source's active call; other numbers are inactive results; i = inactive; x = not tested or not shown; & = joins results of further samples.
SMILES,E coli growth,UCH37 inh,B2AR ag,ALR H2O2 inh,HNF4A DNA FP,rRNA inh HTS,rRNA inh HTS OD600,rRNA inh HTS RFP,FGF22 binding
COC(=O)[C@H]1[C@H]2C[C@@H]3c4[nH]c5cc(OC)ccc5c4CCN3C[C@H]2C[C@@H](OC(=O)/C=C/c2cc(OC)c(OC)c(OC)c2)[C@@H]1OC,x,-2.8,-39,-3,23,x,x,x,i
COCCCOc1ccnc(CS(=O)c2nc3ccccc3[nH]2)c1C (configuration not stated),0.62,-3.3,-13,-48&54,-3.4,x,x,x,i
O=C(O)c1ccc(NCc2cccnc2)c([N+](=O)[O-])c1,0.68,6.8,6,-8,-0.8,16,1,1.3,i
Cc1nc2ccc(C(=O)NC(C)(C)C)cn2c1N(C)C(=O)CCc1ccccc1,x,x,x,x,-1.7,0,-4,3.3,i
CCC(=O)c1ccc(N2CCN(C(=O)c3cccs3)CC2)c(F)c1,0.67,4.3,6,0,7.0,-15,-14,-1.3,i
CCc1c(C)nc(SCC(=O)CC(=O)OC(C)C)c(C#N)c1C,0.69,-5.7,7,x,-4.0,x,x,x,x
COc1ccc2[nH]c(=O)c(CN(Cc3cccnc3)C(=S)NCC3CCCO3)cc2c1 (configuration not stated),0.68,-162,0,23,-1.2,-6,-6,-0.8,i
CN(C)c1ccc(C=Cc2ccnc3c(O)cccc23)cc1,x,x,x,x,74,0,19,6.5,i
N#Cc1ccc(OCC(=O)N2CCc3ccccc32)cc1,0.68,1.8,1,-23,1.4,x,x,x,i
O=C1CCCCC1Nc1ccc2ccccc2c1 (configuration not stated),0.68,-5.3,1,x,-0.5,-55,-75,-14,i
COCCNC(=O)CSc1nnc(-c2ccccc2F)n1Cc1ccccc1,0.7,3.9,10,-6,4.2,15,6,0.4,i
Cc1cc(=O)oc2c(C)c(OCC(=O)N3CCN(C(=O)C4COc5ccccc5O4)CC3)ccc12 (configuration not stated),0.7,-36,10,-4,-1.0,-9,-31,3.5,i
O=C(O)c1ccc(CNCc2cccc(Oc3ccccc3)c2)cc1,0.67,2.0,-11,3,-1.6,-1,0,-1.2,i
CSc1ccccc1OCc1cc(C(=O)N2CCN(Cc3nccn3C)CC2)no1,0.71,-0.4,-5,-1,-0.3,0,2,4.0,i
CCOC(=O)c1c(NC(=O)CSc2nnc(CNc3ccc(C)cc3C)o2)sc(C)c1C,0.78,-2.3,5,-12,-3.4,x,x,x,x
O=C(CSc1nnc(-c2ccco2)o1)NC1CC2CCC1C2 (configuration not stated),0.73,1.2,-14,5,-0.1,x,x,x,x
Cc1ccc(N2C(=O)c3ccc(C(=O)Nc4cccnc4)cc3C2=O)c(C)c1,0.7,0.3,-6,-2,11,x,x,x,x
Cc1onc(-c2ccccc2Cl)c1C(=O)c1ccccc1,x,x,8,x,0.3,-31,-37,-5.9,i
C[C@@H](c1ccccc1)N1C[C@H](COCc2ccccc2)Oc2cc(N3CCC[C@@H]3CO)ccc2S1(=O)=O,x,x,x,x,-0.7,-2,6,0.2,i
CC(=O)O[C@@H]1C[C@H]2C(C)(C)C(=O)C=C[C@]2(C)[C@H]2CC[C@@]3(C)[C@H](c4ccoc4)OC(=O)[C@H]4O[C@]43[C@@]21C,x,2.5,3,-11,-1.0,-17,-19,-22,i

# A few values from above.
# E coli growth result of `N#Cc1ccc(OCC(=O)N2CCc3ccccc32)cc1` is entered as 0.68
# rRNA inh HTS result of `Cc1cc(=O)oc2c(C)c(OCC(=O)N3CCN(C(=O)C4COc5ccccc5O4)CC3)ccc12` (configuration not stated) is entered as -9

# Continuation:
SMILES,E coli growth,UCH37 inh,B2AR ag,ALR H2O2 inh,HNF4A DNA FP,rRNA inh HTS,rRNA inh HTS OD600,rRNA inh HTS RFP,FGF22 binding
CC(C)(C)CC(C)(C)NCC(O)COc1c(F)cc(Br)cc1F (configuration not stated),0.66,2.0,21,-4,1.2,x,x,x,x
Cc1sc2ncn(CC(=O)NCCCC(=O)N(C)Cc3ccccc3)c(=O)c2c1C,0.65,3.6,-10,-6,-4.8,1,-4,0.7,i
COc1ccc(CCNC(=O)Nc2ccccc2[N+](=O)[O-])cc1,0.68,4.7,0,0,-0.9,-7,-3,0.2,x
Cc1nc(C)c(CCNC(=O)c2cccc(Cl)c2)s1,0.63,2.6,4,-9,0.8,x,x,x,x
OCC[C@@H]1C[C@@H](O)[C@H](O)[C@]2(OCCc3ccccc32)O1,x,2.0,5,-4,-2.2,4,6,4.3,i
CC(C)Oc1cccc(C(=O)Nc2nnc([C@H]3C[C@H](O)[C@@H](CO)O3)s2)c1,x,x,x,x,4.7,5,9,-2.3,i
CC(=O)Nc1ccc(OCC(O)Cn2c(C(C)C)nc3ccccc32)cc1 (configuration not stated),0.65,3.2,12,-9,-1.7,-2,-2,0.5,i
CSc1cccc(NC(=O)C2CCCN(S(=O)(=O)c3cccs3)C2)c1 (configuration not stated),0.7,2.7,-1,-11,-2.0,-4,-23,-0.1,i
Cc1ccc(C(=O)/C=C/c2ccc3c(c2)OCO3)o1,0.62,3.5,12,-13,2.7,-4,-10,-2.4,i
O=C(CSc1n[nH]c(-c2ccco2)n1)Nc1ccc(F)cc1,0.63,2.6,7,-5,2.8,-2,3,-1.1,i
CCOc1cccc(-c2nnc3sc(-c4cc(OC)c(OC)c(OC)c4)nn23)c1,0.65,-6.4,11,-7,-2.1,x,x,x,x
O=C(C1CC1)N(CCN(Cc1ccccc1)C(=O)C1CC1)Cc1ccccc1,0.66,4.0,-4,3,-1.0,x,x,x,x
CC1CCN(C(=O)CC(NC(=O)c2ccccc2Cl)c2ccccc2)CC1 (configuration not stated),0.66,1.9,-3,-28,1.7,0,2,-0.7,i
CC(=O)c1c(C)[nH]c(C(=O)Nc2ccc(N3CCCCCC3)cc2)c1C,x,x,x,x,0.0,5,-33,8.7,i
COC(=O)c1ccc(COC(=O)c2ccc(-n3cnnn3)cc2)o1,0.65,3.5,4,-2,-2.6,x,x,x,x
CC(C)(C)OC(=O)CNC(=O)c1nc[nH]c1C(=O)N1CCN(C(=O)OC(C)(C)C)CC1,0.7,-2.4,-2,0,-0.1,14,-2,3.6,i
COc1ccccc1NC(=O)COC(=O)C1CC1,0.64,3.2,7,2,1.2,4,-2,13,i
COc1ccc(N2C(=O)N[C@@H](Cc3ccccc3)C2=O)cc1OC,0.68,1.1,2,-9,-1.7,11,10,2.6,i
O=S(=O)(Nc1ccc2nc(-c3ccco3)[nH]c2c1)c1ccccc1,0.72,-2.7,-8,89*,8.4,x,x,x,x
CCOC(=O)C1CCN(C(=O)c2cccc(NC(=O)C(CC)CC)c2)CC1,0.61,-0.1,0,-4,-1.3,x,x,x,x
COc1ccc(C(=O)Nc2ccc(O)c3ccccc23)cc1OC,0.66,5.5,-1,68,0.3,-25,-9,2.7,i
C=CCOc1ccc(/C=C2\SC(N)=NC2=O)cc1OC,0.68,0.1,3,-2,0.4,5,-2,-0.2,i
CC(C)(O)c1[nH]c2cc(C(F)(F)F)ccc2c1C(C)(C)O,x,0.9,2,-4,0.7,-11,-17,-4.0,i
S=C(c1ccc(Br)cc1)N1CCCC1,0.67,3.8,-1,-4,0.2,9,0,8.0,i
COC(=O)c1ccc(CN2CCC(Oc3cccc(C(=O)N4CCOCC4)c3)CC2)cc1,0.69,1.2,9,0,1.6,13,11,3.9,i
CCC(C)(C)NC(=O)C(c1ccc(F)cc1)N(Cc1ccco1)C(=O)c1cnccn1 (configuration not stated),0.67,4.4,8,2,-1.0,x,x,x,x
Cc1cc(C)nc(Nc2cccc3ccccc23)n1,0.69,4.5,-2,-42,-1.2,-4,-2,0.0,i
CC1N(C)c2cc(NC(=O)c3ccco3)c(P(=O)(Nc3ccc([N+](=O)[O-])cc3)N3CCOCC3)cc2C1(C)C (configuration not stated),0.66,2.8,24,-34,-0.2,-36,16,43,i
O=C(Nc1ccc(OC(F)F)cc1)c1cc[n+]([O-])cc1,0.64,2.7,1,-2,4.9,5,8,0.8,i
CCSCCOC(=O)C1=C(C)NC(=O)NC1c1ccccc1 (configuration not stated),0.71,2.2,9,0,-2.2,-7,-10,-3.9,i
COc1cc(C(c2c(C)[nH][nH]c2=O)c2c(C)[nH][nH]c2=O)cc(OC)c1OC,0.69,1.3,5,6,-2.4,12,11,0.7,i
CC(C)(C)c1csc(NNC(=O)c2ccc(Cl)cc2)n1,0.62,0.8,2,6,2.2,-15,-6,-9.6,i

# Laid out differently: results already given
# Values run as follows: E coli growth, UCH37 inh, B2AR ag, ALR H2O2 inh, HNF4A DNA FP, rRNA inh HTS, rRNA inh HTS OD600, rRNA inh HTS RFP, FGF22 binding
COc1ccc(C(=O)Nc2ccc(O)c3ccccc23)cc1OC
  0.66, 5.5, -1, 68, 0.3, -25, -9, 2.7, i
C=CCOc1ccc(/C=C2\SC(N)=NC2=O)cc1OC
  0.68, 0.1, 3, -2, 0.4, 5, -2, -0.2, i
CC(C)(O)c1[nH]c2cc(C(F)(F)F)ccc2c1C(C)(C)O
  x, 0.9, 2, -4, 0.7, -11, -17, -4.0, i
S=C(c1ccc(Br)cc1)N1CCCC1
  0.67, 3.8, -1, -4, 0.2, 9, 0, 8.0, i
COC(=O)c1ccc(CN2CCC(Oc3cccc(C(=O)N4CCOCC4)c3)CC2)cc1
  0.69, 1.2, 9, 0, 1.6, 13, 11, 3.9, i
CCC(C)(C)NC(=O)C(c1ccc(F)cc1)N(Cc1ccco1)C(=O)c1cnccn1 (configuration not stated)
  0.67, 4.4, 8, 2, -1.0, x, x, x, x
Cc1cc(C)nc(Nc2cccc3ccccc23)n1
  0.69, 4.5, -2, -42, -1.2, -4, -2, 0.0, i
CC1N(C)c2cc(NC(=O)c3ccco3)c(P(=O)(Nc3ccc([N+](=O)[O-])cc3)N3CCOCC3)cc2C1(C)C (configuration not stated)
  0.66, 2.8, 24, -34, -0.2, -36, 16, 43, i
O=C(Nc1ccc(OC(F)F)cc1)c1cc[n+]([O-])cc1
  0.64, 2.7, 1, -2, 4.9, 5, 8, 0.8, i
CCSCCOC(=O)C1=C(C)NC(=O)NC1c1ccccc1 (configuration not stated)
  0.71, 2.2, 9, 0, -2.2, -7, -10, -3.9, i
COc1cc(C(c2c(C)[nH][nH]c2=O)c2c(C)[nH][nH]c2=O)cc(OC)c1OC
  0.69, 1.3, 5, 6, -2.4, 12, 11, 0.7, i
CC(C)(C)c1csc(NNC(=O)c2ccc(Cl)cc2)n1
  0.62, 0.8, 2, 6, 2.2, -15, -6, -9.6, i

# Screens deposited in PubChem BioAssay by several laboratories.

# A portion of the library, so the mix of outcomes need not match the whole.
